Screens (PubChem BioAssay)
Sfp PPTase inh – blocks B. subtilis Sfp PPTase activity; Q9F4F7; Biochemical Sfp PPTase activity, qHTS; Potency, µM, inactives show max response, negative = inhibition, hits mostly inhibitors; 310,000 tested, 3.5% active; AID 1490; active = well fitted inhibition curve with a large enough effect; inconclusive = small, poorly fitted or top-dose-only effect, or another doubt; inactive = no such curve, though single readings can be large or run the other way;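 also: the enzyme is Sfp with the accession as filed and its product quenches rhodamine fluorescence; potency is read from the fitted curve at half-maximal effect; 0% = enzyme reaction without inhibitor and -100% = no enzyme wells; top concentration of the series not given in the record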
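Compounds were incubated with enzyme (final 15 nM) for 15 min at room temperature before substrate addition started the reaction. Fluorescence at 525 nm excitation, 598 nm emission was recorded immediately and after 30 minutes.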
D2 ag – activates the human D2 dopamine receptor; P14416; DiscoveRx PathHunter D2 beta-arrestin, luminescence, 90 min; 100% = 57 uM dopamine signal; activation, % (no concentration beside the values); 360,000 tested, 0.084% active; in the data active = activation above about 40%; inconclusive = about 15% to 40%; inactive = below about 15%; also: compound concentration not given in the record; the text of the record calls up to 30% inactive
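DiscoveRx PathHunter D2 beta-arrestin cells (2,100/well) attached overnight, then compound-stimulated 90 min at 37 C in HBSS/10 mM HEPES/0.1% Tween-20 buffer; beta-galactosidase complementation read by luminescence after 1 h at ambient temperature. Dopamine 57 uM final (EC100) as control.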
CtBP-E1A inh – CtBP/E1A binding inhibition | AlphaScreen GST-E1A/His-CtBP binding, 1536-well; stronger effect = lower value; control for the full effect not named in the record | activity change, % (test concentration not listed) | 340,000 tested, 0.49% active | AID 651724; in the data active means activity change below about -65%; inconclusive means about -30% to -65%; inactive means above about -30%; also: % is scaled to controls: 0 for no effect and ±100 for the full control effect; compound concentration not given in the record
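Protein mix (5X: 125 nM each GST-E1A, His-CtBP) was incubated with pinned compound 2 h at 37 deg C in dark, in 50 mM Tris pH 8.0 buffer with 300 mM NaCl. Glutathione donor and nickel acceptor beads followed; AlphaScreen signal read after 1 h.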
D2 PAM – positive allosteric modulators of human D2 dopamine receptor; P14416; DiscoveRx D2 beta-arrestin cells, luminescence, 90 min; 100% = 57 uM dopamine signal; potentiation, % (test concentration not listed); 360,000 tested, 0.23% active; active = potentiation of 50% or more; inconclusive = 30% to 50%; inactive = 30% or less;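 also: compound concentration not given in the record; tested on top of an EC20 dose of dopamine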
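PathHunter beta-arrestin assay in DiscoveRx D2 cells. Compounds were added with an EC20 of dopamine (50 nM final) for 90 min at 37 deg C. Luminescence was read 1 h after detection reagent, with 57 uM dopamine as the EC100 control.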
TRPV1 potentiator – human TRPV1 potentiation | Q8NER1 | TRPV1-expressing cells, Fluo-8 calcium influx, capsaicin EC20 potentiation; host cell line not named in the record; control for the full effect not named in the record | potentiation, % at 8.33 µM | 320,000 tested, 0.02% active | AID 540277; active means potentiation above 80%; inconclusive means 30% to 80%; inactive means below 30%; also: 0% is about no effect
Target sequence (Q8NER1 whole entry, looked up): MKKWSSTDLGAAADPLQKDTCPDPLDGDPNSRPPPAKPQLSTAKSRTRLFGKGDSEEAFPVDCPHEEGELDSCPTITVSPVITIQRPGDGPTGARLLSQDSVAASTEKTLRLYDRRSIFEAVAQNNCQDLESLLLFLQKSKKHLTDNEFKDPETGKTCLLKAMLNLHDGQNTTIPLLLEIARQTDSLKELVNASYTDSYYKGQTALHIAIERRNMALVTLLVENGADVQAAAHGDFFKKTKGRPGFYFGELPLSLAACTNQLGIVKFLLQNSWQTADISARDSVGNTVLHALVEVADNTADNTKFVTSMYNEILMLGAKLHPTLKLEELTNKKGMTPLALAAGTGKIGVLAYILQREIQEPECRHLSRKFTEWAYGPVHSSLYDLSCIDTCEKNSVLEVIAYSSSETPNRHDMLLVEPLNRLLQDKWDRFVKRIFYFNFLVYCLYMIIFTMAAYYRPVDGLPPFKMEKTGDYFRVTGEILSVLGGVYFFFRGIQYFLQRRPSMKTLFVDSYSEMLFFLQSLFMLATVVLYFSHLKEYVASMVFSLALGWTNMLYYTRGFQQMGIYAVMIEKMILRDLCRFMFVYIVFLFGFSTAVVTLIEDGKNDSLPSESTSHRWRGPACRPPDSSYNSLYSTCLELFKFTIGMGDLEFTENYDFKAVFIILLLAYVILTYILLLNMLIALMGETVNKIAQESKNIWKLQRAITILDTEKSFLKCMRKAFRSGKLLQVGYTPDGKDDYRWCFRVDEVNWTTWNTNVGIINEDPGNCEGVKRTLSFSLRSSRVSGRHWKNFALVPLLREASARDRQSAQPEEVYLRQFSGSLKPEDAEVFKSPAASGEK
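Cells expressing TRPV1 were dye-loaded with Fluo-8 and read kinetically: 10 s baseline, 3 min after compound (agonist portion), then 2 min after EC20 capsaicin (allosteric enhancer portion). Calcium-bound dye fluorescence at 480/520 nm.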
Six1-Eya2 inh – inhibitors of human Six1/Eya2 interaction. Q15475+O00167. AlphaScreen GST-Six1/His-Eya2 binding, biochemical; stronger effect = lower value; control for the full effect not named in the record. activity change, % (concentration not given with the values). 360,000 tested, 0.56% active. AID 651725; in the data active = activity change below about -65%; inconclusive = about -30% to -65%; inactive = above about -30%; also: % is scaled to controls: 0 for no effect and ±100 for the full control effect
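Six1/Eya2 binding was read as AlphaScreen signal after compounds were pinned into GST-Six1 plus His-tagged Eya2 (5X stock 250/500 nM) in pH 8.0 Tris/NaCl/TCEP buffer, beads added, then incubated 1 h, 37 C, dark.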
PINK1 expr mod – changes PINK1 expression; 410,000 tested, 0.2% active; PINK1 immunofluorescence, high-content cytometry, 24 h; AID 624263; Potency, µM (series often up to 76.6 µM), without a hit: at the highest dose activation (PINK1 increase), usual class: activators; active = well fitted activation curve with a large enough effect; inconclusive = small, poorly fitted or top-dose-only effect; inactive = flat fitted curve, though single readings scatter; cell line not stated here;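 also: potency is read from the fitted curve at half-maximal effect; % of control where 0% means no effect; nearly all actives have a fitted effect of over 65% in size; a mitochondrial uncoupler was the plate control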
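Stable cell line treated 24 h with compounds at 5 concentrations (CCCP controls), then fixed and immunostained for PINK1 plus nuclear and cell stains; PINK1 immunofluorescence quantified by laser-scanning microplate cytometry.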
Active calls of the source: *; ? = inconclusive; . = not tested or not shown; & = joins results of further samples; [ ] = dose if it differs, or a comment.

no.	SMILES	Sfp PPTase inh	D2 ag	TRPV1 potentiator	PINK1 expr mod	Six1-Eya2 inh	CtBP-E1A inh	D2 PAM
1	COCCNC(=O)CSc1nc2ccccc2c(=O)n1CC1CCCO1 (centres undefined)	7.7%	-4.6	?	-1.3%	-0.2	2.8	-9.4
2	O=C(COC(=O)C1(c2ccc(F)cc2)CCCC1)N1CCN(C(=O)c2ccco2)CC1	0.3%	-2.0	-18.3	-0.3%	-2.9	0.2	-11.7
3	Cc1ccccc1CSc1nnc(-c2ccccn2)n1C	2.7%	2.5	-8.7	0.4%	4.4	0.4	-2.1
4	O=[N+]([O-])c1ccccc1S(=O)(=O)N1CCN(Cc2cc3c(cc2O)OCO3)CC1	2.9%	-1.0	0.7	1.6%	-12.5	-12.7	-5.7
5	O=C(COC(=O)c1ccccc1F)Nc1cc(S(=O)(=O)N2CCOCC2)ccc1N1CCCC1	-1.9%	-1.1	7.8	1.6%	4.1	19.9	-3.0
6	NC(=O)c1ccc(NC(=O)COc2ccc([N+](=O)[O-])cc2Cl)cc1	21.7%	1.7	4.1	4.5%	-0.2	2.5	-0.8
7	O=C(Nc1ccccc1)C1CCN(S(=O)(=O)c2ccc3c(c2)OCCO3)CC1	.	-1.6	11.3	-1.7%	1.6	1.9	6.5
8	Cc1ccc(CNC(=O)Cn2cccc2)cc1	16.6%	-0.7	1.7	0.8%	-2.3	.	-9.0
9	COc1ccccc1C(=O)Nc1nnc(-c2ccc(Cl)cc2)o1	22.7%	1.7	-8.2	0.2%	-13.0	-6.7	-8.0
10	CCN1C(=O)CC(N2CCC(Nc3ccc(OC)cc3)CC2)C1=O (centres undefined)	11.8%	-4.2	-0.5	-1.3%	5.3	-0.9	14.3
11	Cc1ccc(C(=O)CNc2cccc([N+](=O)[O-])c2)cc1	5.4%	-3.2	-1.7	-0.9%	0.5	5.6	-4.7
12	CC(C)CN(C(=O)COC(=O)CCCc1nc2ccccc2s1)c1c(N)n(Cc2ccccc2)c(=O)[nH]c1=O	.	-3.3	10.8	13.2%	-2.6	-21.6	-4.1
13	COc1cc(C(=O)Nc2nc3ccc4nc(C)sc4c3s2)cc(OC)c1OC	9.0%	-1.4	-4.8	8.4%[38.3 µM]	1.6	-5.3	-4.4
14	CCN(CC)CCn1c2ccc(F)cc2c2nc(C)sc21	0.6%	-0.6	20.0	-0.1%[38.3 µM]	-5.8	-6.2	-24.0
15	CCC(c1ccccc1)C(CC)c1cc(O)c(O)c(O)c1 (centres undefined)	.	8.8	.	13.4%	4.4	0.0	6.4
16	Cc1sc(NC(=O)C2CCCCC2)c(C#N)c1-c1ccccc1	-50.1%	0.9	-4.2	1.2%	-7.5	-2.8	-0.5
17	COC(=O)C(=O)C/C(=N/Nc1ncnc2ccccc12)c1ccc(Cl)cc1	10.4%	-10.0	0.0	4.8%	?	?	4.1
18	C#CCOCCOCCOCCNc1nc(N2CCN(C(=O)CCCCCCCCCCNC(=O)Cn3cc(CCCCCN)nn3)CC2)nc(N2CCN(C(=O)CCCCCCCCCCNC(=O)[C@@H](CCC(=O)O)n3cc(CCCCCN)nn3)CC2)n1	.	-6.0	?	3.8%	-5.2	-5.4	-13.5
19	C=CCCCCCCCCc1nc(SCC(C)=O)n[nH]1	3.1%	2.2	?	2.0%	12.8	13.2	-8.4
20	Cc1cccc(NC(=S)NCCO)c1C	-4.6%	1.2	13.5	0.3%	0.9	2.5	-3.9
21	Nc1ncnc2c1ncn2C1OC(COP(=O)(O)O)C(O)C1O (centres undefined)	6.4%&10.5%	-1.1	22.4	5.9%	-3.3	13.9	-9.0
22	COc1ccc(OC)c(NC(=O)Cc2ccc(NC3=NC4CS(=O)(=O)CC4S3)cc2)c1 (centres undefined)	1.6%	-3.1	-14.9	0.0%	-0.6	-13.6	-5.4
23	Clc1ccc(OCCSCc2nc3ccccc3[nH]2)cc1	28.9%	-1.9	-0.2	-0.3%	-6.6	-1.7	-8.1
24	Cc1ccc(CCNC(=O)CCS(=O)(=O)c2cc3c(cc2C)NC(=O)CO3)cc1	-5.8%	0.3	-3.9	5.8%&0.0%	9.4	5.5	-6.4

Another view of some results above.
[16] Cc1sc(NC(=O)C2CCCCC2)c(C#N)c1-c1ccccc1
  Sfp PPTase inh: -50.1%; D2 ag: 0.9; TRPV1 potentiator: -4.2; PINK1 expr mod: 1.2%; Six1-Eya2 inh: -7.5; CtBP-E1A inh: -2.8; D2 PAM: -0.5
[17] COC(=O)C(=O)C/C(=N/Nc1ncnc2ccccc12)c1ccc(Cl)cc1
  Sfp PPTase inh: 10.4%; D2 ag: -10.0; TRPV1 potentiator: 0.0; PINK1 expr mod: 4.8%; Six1-Eya2 inh: ?; CtBP-E1A inh: ?; D2 PAM: 4.1
[18] C#CCOCCOCCOCCNc1nc(N2CCN(C(=O)CCCCCCCCCCNC(=O)Cn3cc(CCCCCN)nn3)CC2)nc(N2CCN(C(=O)CCCCCCCCCCNC(=O)[C@@H](CCC(=O)O)n3cc(CCCCCN)nn3)CC2)n1
  Sfp PPTase inh: .; D2 ag: -6.0; TRPV1 potentiator: ?; PINK1 expr mod: 3.8%; Six1-Eya2 inh: -5.2; CtBP-E1A inh: -5.4; D2 PAM: -13.5
[19] C=CCCCCCCCCc1nc(SCC(C)=O)n[nH]1
  Sfp PPTase inh: 3.1%; D2 ag: 2.2; TRPV1 potentiator: ?; PINK1 expr mod: 2.0%; Six1-Eya2 inh: 12.8; CtBP-E1A inh: 13.2; D2 PAM: -8.4

Continued:
no.	SMILES	Sfp PPTase inh	D2 ag	TRPV1 potentiator	PINK1 expr mod	Six1-Eya2 inh	CtBP-E1A inh	D2 PAM
25	Cc1cccc(-c2ncc(CN3CCCC(CO)(Cc4ccccc4C)C3)cn2)c1 (centres undefined)	-7.1%	0.0	3.9	?	-1.2	13.0	-0.8
26	CCOC(=O)c1sc(NC(=O)CCCCCN2C(=O)c3cccc4cccc(c34)C2=O)nc1C	-0.6%	-1.5	.	?	1.4	4.0	2.7
27	COC(=O)CCC(=O)OC1(C)C(=O)C=C2C=C3CCCN3C=C2C1=O (centres undefined)	-1.0%&-7.4%	5.4	-23.0	-0.5%	-3.9	1.6	7.4
28	O=[N+]([O-])c1ccc2c(c1)CO[C@@]21O[C@H](CCO)C[C@H](O)[C@H]1O	.	-4.4	.	-0.4%	18.6	-13.6	-4.4
29	Cc1ccccc1CC(=O)Nc1cc(C(C)(C)C)on1	15.4%	-1.6	0.8	4.9%	0.9	6.3	-9.7
30	O=C(NCCC(=O)N1CCC2(CC1)NCCc1[nH]cnc12)c1cccc(Cl)c1	6.0%	-2.5	0.1	0.5%	-1.5	0.1	-16.1
31	FC(F)(F)c1cc(CO[C@@H]2CCCN[C@@H]2c2ccccc2)cc(C(F)(F)F)c1	.	-8.1	-14.5	-0.6%	-1.5	-3.4	-11.7
32	COC(=O)c1sc(NC(=O)CSc2nnnn2-c2cccc(OC)c2)nc1C	5.0%	-4.4	0.7	0.9%	0.0	8.3	5.4
33	CCOc1ncccc1C(=O)N(CC)CC(=O)NCc1ccc(Cl)cc1	10.7%	-2.3	20.8	0.3%	-5.7	4.1	-2.3
34	Cc1nc(CCNC(=O)CC2C(=O)NCCN2Cc2ccoc2)nc2c1CCCC2 (centres undefined)	-13.9%	-4.6	-0.8	-1.0%	3.4	-8.1	-3.4
35	O=c1ccc(Oc2nc(N3CCOCC3)nc(N3CCOCC3)n2)n[nH]1	9.9%	-2.5	7.9	0.4%	8.0	0.5	6.5
36	CCOc1ccc2[nH]c(S(=O)(=O)CC)nc2c1Cl	22.4%	-5.5	0.0	1.4%	-1.6	-22.5	-12.2
37	CC(C)[C@H](NC(=O)c1ccccc1F)C(=O)Nc1cccc(S(=O)(=O)N2CCOCC2)c1	.	-5.3	.	1.9%	2.7	0.3	-10.5
38	CC(=O)c1c(N)[nH]c(-c2ccccc2)nc1=S	8.2%	-4.3	-2.5	1.7%	-15.4	-23.6	-13.8
39	CCOC(=O)C1(C/C(C)=N/NC(N)=O)CC(C)OC1=O (centres undefined)	13.6%	1.2	?	0.3%	1.1	11.6	-4.1
40	CCOc1ccccc1N1CCN(C(=O)CCNS(=O)(=O)c2ccccc2F)CC1	.	-2.6	13.8	0.1%	-5.9	12.4	-9.6
41	Cn1cnnc1SCC(=O)NCCC(c1ccccc1)c1ccccc1	3.9%	-2.9	11.7	0.4%	1.8	9.2	1.7
42	O=C1CC(N2CCN(C3CC(=O)N(CCc4ccccc4)C3=O)CC2)C(=O)N1CCc1ccccc1 (centres undefined)	15.1%	-3.2	5.4	-1.5%[38.3 µM]	-3.9	8.4	-12.5
43	COc1ccc(C(=O)N/C(=C\c2cn(C)c3ccccc23)C(=O)OCC(C)C)cc1	-2.7%	0.1	-4.4	11.5%	6.1	-2.3	-30.9
44	CCCS(=O)(=O)N1CCCC(C(=O)N2CCOCC2)C1 (centres undefined)	7.9%	-2.5	-3.1	-1.6%	-4.1	6.6	9.4
45	COC(=O)CCC(=O)Nc1ccc(N=Nc2ccccc2)cc1	-40.3%	-8.0	-16.1	1.8%	-19.5	-20.3	-11.2
46	COCOCCn1cc(CN2CCS(=O)(=O)N(Cc3ccc(-c4ccc(Cl)c(Cl)c4)cc3)C(C)C2=O)nn1 (centres undefined)	.	-2.3	.	?	-7.0	0.2	-5.6
47	Clc1ncnc2c1oc1ccccc12	14.4%	-2.7	4.2	2.3%	-22.1	-5.7	-6.8
48	COCc1cc([C@@H]2C[C@H]3CN(c4ccccc4)C(=O)[C@]34CCCN24)ccc1OC	6.6%	1.3	7.8	-1.1%	1.1	.	-11.4
49	CCCNC(=O)CSc1nnc(-c2ccco2)n1C	9.8%	-0.3	6.7	-0.5%	11.3	-3.7	1.6
50	Cc1cc(Cl)ccc1NC(=O)CCN1C(=O)C2CCCCC2C1=O (centres undefined)	.	-3.7	-6.4	-0.3%	7.3	5.6	-0.6
51	CCOCCCNC(=O)C1CCN(c2cc(C)nc3c(-c4ccc(OC)c(OC)c4)c(C)nn23)CC1	3.9%	-0.3	-2.4	0.7%	2.1	-1.7	-2.0
52	CCOC(=O)Nc1ccc2c(CN3CCN(S(=O)(=O)c4ccccc4)CC3)cc(=O)oc2c1	8.4%	-0.5	26.4	-4.2%	0.8	-8.8	5.4
